# S aureus helic = S. aureus DNA helicase inhibition; purified S. aureus helicase, fluorescence unwinding assay; about half of the hits fall short of the stated cut; inhibition, %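 (tested at about 80 µM)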; hit rate 0.05% among 120,000;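 active = both duplicates at 50% or more, or one of them with a favoured structure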;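 also: 0% = mean of negative control wells and 100% = mean of positive control wells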
# MgrA DNA FP = alters Staphylococcus aureus MgrA binding to DNA; fluorescence polarization; inhibition, %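 (about 10 µg/mL by stock and volumes)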; hit rate 0.13% among 84,000;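 active = above 50% in either of two replicates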;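 also: 0% = protein plus DNA without compound and 100% = DNA alone without protein; higher means less MgrA bound to DNA so lower polarization; one replicate is shown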
# * marks the source's active call; other numbers are inactive results; x = no result given; & = joins results of further samples.
# Values run as follows: S aureus helic	MgrA DNA FP
- C1=C(N2CCOCC2)Cc2ccccc21
    x	10.5
- COc1ccc(/C(N)=N/OC(=O)COc2ccccc2C)cc1OC
    -27.0	x
- N=C1/C(=C\c2ccc(-c3cccc(C(=O)O)c3)o2)C(=O)N=C2SC(N3CCCCC3)=NN12
    7.0	x
- Cn1cnnc1SCC(=O)N1CCCCC1
    14.0	x
- CCC(=O)N1c2ccccc2NC2=C(C(=O)CC(C)(C)C2)C1c1cc(OC)c(OC)c(OC)c1 (stereo unspecified)
    x	-1.5
- CCN(CC)Cc1c(O)ccc2oc(C)c(C(=O)Nc3ccccc3C)c12
    12.0	x
- CC(C)CN(C(=O)c1ccc(=O)n(C)n1)c1nc2ccccc2s1
    7.0	x
- CNc1ccccc1C(=O)N/C(N)=N\c1nc(C)c2ccccc2n1
    39.0	x
- CSC1=NC=C(C#N)C2=NC(c3ccc4c(c3)OCO4)NN12 (stereo unspecified)
    x	-0.2
- Cc1cc(C)c2ccc(N)nc2n1
    x	0.0
- CC(=O)Oc1cccc(C2C3=C(CC(C)(C)CC3=O)Nc3ccccc3N2C(=O)c2ccccc2)c1 (stereo unspecified)
    x	0.4
- CCOC(=O)N1CCN(S(C)(=O)=O)CC1
    -31.0	x
- O=C(CCc1nc(-c2ccccc2)no1)Nc1ccccc1
    6.0	-0.2
- CCOC(=O)N1CCc2c(sc3c2C(=O)NC(c2ccccc2)N3)C1 (stereo unspecified)
    17.0	1.1
- CC(C(=O)Nc1ccc(S(N)(=O)=O)cc1)N1C(=O)CCC1=O (stereo unspecified)
    19.0	x
- Cc1cc(=O)[nH]c(SCC(=O)Nc2c(C)n(C)n(-c3ccccc3)c2=O)n1
    -15.0	x
- CC(C)c1ccc(NC(=O)CN2C(=O)c3ccccc3Sc3ccc(C(=O)N4CCCC4)cc32)cc1
    -2.0	-0.6
- Cc1onc(-c2c(F)cccc2Cl)c1C(=O)c1ccccc1O
    x	-0.9
- N#CCc1c(C#N)c(N)nc(N2CCc3ccccc32)c1C#N
    3.0	x
- C1CCC(N2CCN(C3CCCC3)CC2)CC1
    -5.0	-3.9
- CCNc1nc(NCC)n2c(SCC(=O)c3ccc(C(C)C)cc3)nnc2n1
    x	-1.4
- CCn1c(CNC(C)=O)nc2ccccc21
    -13.0&4.0	x
- O=C(CCCSc1nc2ccccc2[nH]1)N1CCN(S(=O)(=O)Cc2ccccc2)CC1
    -9.0	x
- C=CCn1c(-c2ccncc2)n[nH]c1=S
    -9.0	x
- O=C(NC=Nc1cccnc1)C1COc2ccccc2O1 (stereo unspecified)
    2.0	-6.2
- CC1=C(c2ccc(C)cc2)S(=O)(=O)N(CC(=O)N2CCN(c3ccccn3)CC2)C1=O
    0.0	-0.8
- CC(=O)OCC1C(COC(C)=O)C1(Cl)Cl (stereo unspecified)
    -1.0	-0.2
- CCOC(=O)CSc1ncnc2c1cnn2-c1ccccc1
    x	-2.8
- CCOC(=O)c1c(CN2CCCC2)n(C)c2cc(Br)c(OC)cc12
    15.0	-3.0
- COc1cccc(NC(=O)CSc2ncc3c(n2)-c2ccccc2N(C)S3(=O)=O)c1
    -1.0	x
- O=C(c1cccc(NC2=NC3CS(=O)(=O)CC3S2)c1)N1CCN(C(=O)c2ccco2)CC1 (stereo unspecified)
    8.0	x
- COc1ccc(NC(=O)c2ccoc2COc2ccc(C)cc2)cc1
    0.0	-1.1
- Cc1ccc(C2(C)NC(=O)N(CC(=O)C(C)(C)C)C2=O)cc1 (stereo unspecified)
    -8.0	x
- Cc1[nH]c2cccc(C(=O)O)c2c1C
    -14.0	1.2
- CCc1nn(C)c(N)c1C
    15.0	-1.4
- COc1ccc(NC(=O)c2ccc(C)c(I)c2)cc1OC
    4.0	1.4
- CCS(=O)(=O)Nc1ccc(N2CCCCC2)cc1
    -4.0	x
- COc1ccc([C@H]2Sc3ccccc3N(CCN(C)C)C(=O)[C@H]2OC(C)=O)cc1
    x	96.2*
- O=C(NCC1CCCO1)c1ccc(N2CC3CC(C2)c2cccc(=O)n2C3)c(NS(=O)(=O)c2ccc(F)cc2)c1 (stereo unspecified)
    5.0	x
- CC1CCCCN1S(=O)(=O)c1coc(C(N)=O)c1 (stereo unspecified)
    -12.0	x
- CN(C(=O)COC(=O)c1cccnc1Cl)C1CCCCC1
    7.0	-0.1
- CN(C)CCN1C(=O)C2C3c4ccccc4C(c4ccccc43)C2C1=O (stereo unspecified)
    -11.0	x
- CN(C)/C=C(\C#N)S(=O)(=O)c1ccccc1
    19.0	5.3
- C1=CCC(CN2CCN(CC3CC4C=CC3C4)CC2)CC1 (stereo unspecified)
    3.0	-1.8
- O=C(NCCc1ccccc1)c1c(O)c2cccc3c2n(c1=O)CC3
    4.0	-2.4
- CC1=NN(c2ccccc2)C(=O)C1/C=C1\C(=O)NC(=O)N(c2ccccc2)C1=O (stereo unspecified)
    2.0	0.0
- CCOC(=O)c1ccc(N2Cc3ccccc3C2=N)cc1
    6.0	x
- O=C(NCc1ccccn1)C1CCCCC1
    2.0	-0.9
- Cc1c(CCC(=O)O)c(=O)oc2cc3occ(-c4ccc(Br)cc4)c3cc12
    0.0	x
- COC(=O)CCc1nc2ccccc2nc1OC
    29.0	x
- O=c1ccc(-c2ccc(Cl)cc2)n[nH]1
    -35.0	x
- Cc1cc(C)c2[nH]c(=O)c(CN(Cc3ccc(F)cc3)Cc3nnnn3CC3CCCO3)cc2c1 (stereo unspecified)
    2.0	0.0
- CN(Cc1ccccc1)S(=O)(=O)c1ccc(NC(=O)/C=C/c2ccco2)cc1
    -5.0	x
- CC1CCC(C(C)C)C(NCc2ccccc2)C1 (stereo unspecified)
    x	-2.0
- COC(=O)Cc1ccc2c3ccccc3n(C)c2c1
    15.0	3.8
- O=C1CC(c2ccc(S(=O)(=O)NCc3ccco3)cc2)CN1 (stereo unspecified)
    -2.0	-2.9
- Cc1cccc(Nc2nc(-c3ccccc3)no2)c1
    7.0	x
- C=CCn1c(NC(=O)c2ccccc2)c(C(=O)OCC)sc1=S
    0.0	x
- Cc1nn(-c2ccccc2)nc1C(=O)Oc1ccc(CC#N)cc1
    x	-1.4
- COc1ccc(NC(=O)CN(C)C2CCCCC2)c(OC)c1
    5.0	x

# Continued:
# Values run as follows: S aureus helic	MgrA DNA FP
- Cc1ccc(-c2nn(CC(=O)N(C)C)c(=O)c3ccccc23)cc1
    8.0	1.1
- CC1(C)CC(=O)C2=C(C1)N=C1c3ccccc3C(=O)C1C2c1cccc(Br)c1 (stereo unspecified)
    15.0	2.9
- NS(=O)(=O)c1cccc(C(=O)Nc2ccc(F)cc2)c1
    3.0	0.2
- CC(C)N1CCN(c2ccc(OC[C@@H]3CO[C@@](Cn4cncn4)(c4ccc(Cl)cc4Cl)O3)cc2)CC1
    x	1.8
- O=C1CSC(=S)N1CCc1ccc(Cl)cc1
    x	-1.9
- Cc1ccc(S(=O)(=O)CCC(=O)Nc2ccc3c(c2)nc2n3CCCCC2)cc1
    -5.0	x
- C=CCNC(=O)C1CC(c2cc(OC)ccc2OC)=NO1 (stereo unspecified)
    9.0	-2.0
- O=C(CCCn1nc(-c2ccccc2)c2cc(Cl)ccc21)N1CCOCC1
    6.0	9.0
- O=c1cc(O)n(-c2ccccc2)c(=S)n1-n1c(=O)cc(O)n(-c2ccccc2)c1=S
    -16.0	0.2
- COC1=CC(=O)C=C(OC)C1=O
    x	8.0&6.2
- CCn1cc(CNC(=O)CCCSc2nc(-c3ccco3)cc(C(F)(F)F)n2)cn1
    2.0	0.0
- COc1ccc(C2=NN(C(C)=O)C(c3cc4ccc(C)cc4nc3Cl)C2)cc1 (stereo unspecified)
    x	-2.6
- O=C1C(C=NC2CCCCCC2)=C(O)c2ccccc21
    16.0	-1.7
- CC12CN3CC(C)(CN(C1)C3c1ccccc1)C2=O (stereo unspecified)
    -19.0	x
- CSc1cccc(NC(=O)C2CCCN2S(=O)(=O)c2cccc3cccnc23)c1 (stereo unspecified)
    3.0	0.2
- O=C(CCC(=O)n1ncc2ccccc21)NC1CCCCC1
    11.0	-1.2
- COc1ccc(C2CC(c3ccccc3)=NN2C(=O)CCC(=O)O)cc1 (stereo unspecified)
    x	1.1
- Cc1ccc(NC(=O)C2(NS(=O)(=O)c3cccc4cccnc34)CCCCC2)cc1
    11.0	5.4
- CC(C)[C@H](NC(=O)CNC(=O)OC(C)(C)C)C(=O)N[C@H](C=O)C(C)C
    x	0.5
- COc1ccc(NC2SC(=O)N(c3ccccc3)C2=O)cc1 (stereo unspecified)
    -9.0	3.1
- CCSc1nnc2nc(C)cc(C)n12
    0.0	-1.7
- CCCc1cc(=O)[nH]c(SCc2ccc(Cl)cc2Cl)n1
    x	-2.3
- C1CCN(c2nc(N3CCCC3)nc(N3CCNCC3)n2)C1
    1.0	1.4
- Cc1cccc(Nc2nc(C)cc(C)c2C#N)c1
    6.0	2.2
- CC1CCCC(C)N1C(=O)COC(=O)c1ccc(N2C(=O)c3ccccc3C2=O)cc1 (stereo unspecified)
    3.0	x
- Cn1nnnc1SCC(=O)Nc1nn(-c2ccccc2)nc1C(N)=O
    4.0	x
- COc1ccc(C2NCCc3c2[nH]c2ccccc32)cc1 (stereo unspecified)
    x	1.7
- O=C(COc1ccccc1)OC1OCCOC1OC(=O)COc1ccccc1 (stereo unspecified)
    4.0	x
- COc1cc(/C=C\C(=O)NCc2ccc3[nH]c4c(c3c2)CCCC4)cc(OC)c1OC
    10.0	-0.2
- COCCNC(=O)c1ccc(C(=O)NCCOC)cc1
    -2.0	0.3

# The list continues:
SMILES	S aureus helic	MgrA DNA FP
CCNc1nc2nc3ccc(C)cn3c(=O)c2cc1C(=O)NCC1CCCO1 (stereo unspecified)	7.0	-1.1
CNC(=O)CN(C)Cc1c(O)c(C(=O)NCc2ccccc2)cc2ccccc12	10.0	x
CC(=O)N/N=C/c1ccc(-c2ccc(F)c(Cl)c2)o1	9.0	-2.5
COc1ccc(OC)c(NC(=O)c2cccs2)c1	21.0	-0.6
CC(CN1CCCC1)OC(=O)c1cc(C(C)(C)C)cc(C(C)(C)C)c1 (stereo unspecified)	5.0	0.4
CCOc1ccccc1/C=N/NC(N)=S	x	2.7
Cc1n[nH]c(C)c1Nc1cnn(C23CC4CC(CC(C4)C2)C3)c(=O)c1Cl	10.0	-1.8
CC(c1ccccc1)C1OCC(C[N+]2(C)CCCCC2)O1 (stereo unspecified)	6.0	-1.2
Cn1cnc(S(=O)(=O)Nc2ccc3[nH]ccc3c2)c1	x	-0.5
O=C(Nc1cccc(-c2nc3ccccc3o2)c1)c1cc(=O)c2ccccc2o1	2.0	x

# Among those listed so far, these have a furan ring, fused or not.
SMILES	S aureus helic	MgrA DNA FP
N=C1/C(=C\c2ccc(-c3cccc(C(=O)O)c3)o2)C(=O)N=C2SC(N3CCCCC3)=NN12	7.0	x
CCN(CC)Cc1c(O)ccc2oc(C)c(C(=O)Nc3ccccc3C)c12	12.0	x
O=C(c1cccc(NC2=NC3CS(=O)(=O)CC3S2)c1)N1CCN(C(=O)c2ccco2)CC1 (stereo unspecified)	8.0	x
COc1ccc(NC(=O)c2ccoc2COc2ccc(C)cc2)cc1	0.0	-1.1
CC1CCCCN1S(=O)(=O)c1coc(C(N)=O)c1 (stereo unspecified)	-12.0	x
Cc1c(CCC(=O)O)c(=O)oc2cc3occ(-c4ccc(Br)cc4)c3cc12	0.0	x
CN(Cc1ccccc1)S(=O)(=O)c1ccc(NC(=O)/C=C/c2ccco2)cc1	-5.0	x
O=C1CC(c2ccc(S(=O)(=O)NCc3ccco3)cc2)CN1 (stereo unspecified)	-2.0	-2.9
CCn1cc(CNC(=O)CCCSc2nc(-c3ccco3)cc(C(F)(F)F)n2)cn1	2.0	0.0
CC(=O)N/N=C/c1ccc(-c2ccc(F)c(Cl)c2)o1	9.0	-2.5

# Continuation:
SMILES	S aureus helic	MgrA DNA FP
C/C(CC1CC(COCCC(C)C)OC1=O)=N\NC(N)=S (stereo unspecified)	2.0	0.1
C/C(Cn1nnc2ccccc21)=N/OC(=O)c1c(F)cccc1F	-27.0	x
COc1ccc(/C=C2/SC(=O)N(CCC(=O)Nc3ccccc3C)C2=O)cc1OC	x	-0.6
O=C(O)Cn1cc(C(=O)C2CCCCC2)c2ccccc21	-12.0	x
O=c1[nH]c2ccc(S(=O)(=O)NCc3ccccc3)cc2[nH]1	18.0	x
Cc1ccc(Nc2nc3ccccc3s2)c(C)c1	x	0.7
C=CCOc1cccc(NC(=O)Nc2ccccc2)c1	-1.0	-2.4
O=C(O)C1C2C=CC(C2)C1C(=O)Nc1ccc(Cl)cc1 (stereo unspecified)	x	-0.3
c1ccc2[nH]c(CSc3nnnn3C3CCCCC3)nc2c1	9.0	1.0
Cc1nnc(NC(=O)c2ccccc2NC(=O)c2ccccc2)s1	x	1.5
CC1(C)OCC(C(O)C(O)C2COC(C)(C)O2)O1 (stereo unspecified)	x	-2.2
COc1ccc(OC)c(S(=O)(=O)NCCc2sc(-c3ccc(OC)c(OC)c3)nc2C)c1	-3.0	0.7
O=C(O)c1ccccc1SCC1CCCO1 (stereo unspecified)	10.0	x
N#CCc1ccc(OC(=O)c2cnccc2C(F)(F)F)cc1	x	-2.6
CCn1c(=O)c(-c2c(C)[nH]c3ccccc23)nc2cc(S(=O)(=O)N(C)C)ccc21	-8.0	x
Cc1noc(C)c1CSc1ccccc1C(=O)Nc1nc(SCc2ccc(Cl)cc2)n[nH]1	-16.0	x
O=C(CC(=O)Nc1ccccc1OC(F)(F)F)Nc1ccccc1OC(F)(F)F	x	-0.6
CCC(C)c1ccc(NC(=O)CC#N)cc1 (stereo unspecified)	-19.0	x
O=C(/C=C/c1ccco1)N(Cc1cccs1)C1CCS(=O)(=O)C1 (stereo unspecified)	10.0	2.4
NC(=O)C1CCN(c2ccc(C(F)(F)F)cn2)CC1	x	3.6
O=C(CCC1CCCC1)N1CCN(C(=O)c2cccnc2)CC1	1.0	4.5
COc1cccc(NC(=O)COc2coc(CSc3nncn3C)cc2=O)c1	13.0	x
CC(C)(C)SC(=S)SCC(=O)c1ccc(F)cc1	x	-2.6
Cc1ccc(C(NC=O)c2ccccc2)cc1 (stereo unspecified)	-8.0	x
CCOC(=O)c1c(C)nc2c(c1-c1cccnc1)C(=O)c1ccccc1-2	17.0	x
Cc1ccc2c(c1)c1nc3ccccc3nc1n2C(C)C	-18.0	10.4

# Some of the compounds tested; the hit share may differ from the screen's.
